# Rango dissoc inh: qHTS Assay for Inhibitors of RanGTP induced Rango (Ran-regulated importin-beta cargo) - Importin beta complex dissociation; Snurportin-1 (Homo sapiens) + GTP-binding nuclear protein Ran (Homo sapiens) + Importin …; Biochemical FRET Rango-importin beta, RanGTP-induced dissociation; Potency, µM (titrated, usually from 46.1 µM), for inactives: at the top dose activity change, negative = inhibition; 0.071% of 340,000 active; AID 540253, 2011; active means falling FRET ratio curve, often poorly fitted, with flat reads before Ran was added; inconclusive means other falling curves, or compound fluorescence or quenching; inactive means flat or rising ratio curve;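 also: potency is read from the fitted curve at half-maximal effect; % of control where 0% means no effect; nearly all actives have a fitted effect of over 45% in size; -100% = wells without RanGTP and RCC1; the record marks most hits as doubtful in a second field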
#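 Compounds sat 5 min at room temperature with 0.1 uM Rango biosensor plus 0.25 uM importin beta, then FRET pre-read. RanGTP-RCC1 (0.6 uM Ran, 2mM GTP, 0.2 uM RCC1) added for 45 min, and the CFP/YFP post-read measured blocked complex dissociation.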
# Rango-impB inh: qHTS Assay for Inhibitors of Rango (Ran-regulated importin-beta cargo) - Importin beta complex formation; Rango CFP/YFP FRET sensor + importin beta, 45 min; 0.031% of 340,000 active; Potency, µM (highest dose often 92.2 µM), for the others: at the top dose inhibition of complex formation; Importin subunit beta-1 (Homo sapiens), Q14974; AID 540263, 2011; active = rising FRET ratio curve, often small or poorly fitted; inconclusive = mostly compound fluorescence or quenching in the first reads; inactive = flat curves in all reads;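 also: potency is read from the fitted curve at half-maximal effect; 0% = DMSO wells and 100% = buffer wells lacking importin beta; nearly all actives have a fitted effect of over 15% in size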
#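 Inhibition scored from the CFP 486 nm/YFP 530 nm FRET ratio 45 min after adding 0.125 microM importin beta to 50 nM Rango biosensor preincubated 5 min with compound (room temperature, PBS with DTT, Tween-20, BSA). No-importin wells as positive control.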
# miR-21 FLuc: qHTS Assay for Modulators of miRNAs and/orActivators of miR-21; HeLa miR-21 FLuc reporter, luciferase, 48 h; Potency, µM (titrated, usually from 38.3 µM), inactives show at the top dose reporter change, positive = more light; 340,000 tested, under 10 active; AID 2288, 2010; active = well fitted rising curve with a large enough effect; inconclusive = small, poorly fitted or top-dose-only effect; inactive = no such curve, though single readings can be large or run the other way;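 also: % of control where 0% means no effect; miR-21 action dims this reporter so a rising signal means less miR-21 action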
#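 HeLa cells stably expressing CMV-driven firefly luciferase with a downstream miR-21 binding sequence, endogenously expressing miR-21, were treated with titrations (up to about 40uM final) for 48 hours at 37 degree Celsius. Luciferase luminescence was read after lysis.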
# GLA inh pH 4.5: qHTS Assay for Inhibitors of Human alpha-Galactosidase at pH 4.5. AID 1467, 2008. purified enzyme, 4-MU-alpha-Gal fluorescence, pH 4.5. activity change, negative = inhibition, % at 105 µM. 230,000 tested, under 10 active; inconclusive = small, poorly fitted or top-dose-only inhibition, or a rising curve; inactive = flat fitted curve, though single readings scatter; no compound was filed as active;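 also: 0% = full activity with enzyme and -100% = basal without enzyme; dose as in the result columns while the protocol names 77 µM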
# Target sequence (P06280 whole entry, looked up): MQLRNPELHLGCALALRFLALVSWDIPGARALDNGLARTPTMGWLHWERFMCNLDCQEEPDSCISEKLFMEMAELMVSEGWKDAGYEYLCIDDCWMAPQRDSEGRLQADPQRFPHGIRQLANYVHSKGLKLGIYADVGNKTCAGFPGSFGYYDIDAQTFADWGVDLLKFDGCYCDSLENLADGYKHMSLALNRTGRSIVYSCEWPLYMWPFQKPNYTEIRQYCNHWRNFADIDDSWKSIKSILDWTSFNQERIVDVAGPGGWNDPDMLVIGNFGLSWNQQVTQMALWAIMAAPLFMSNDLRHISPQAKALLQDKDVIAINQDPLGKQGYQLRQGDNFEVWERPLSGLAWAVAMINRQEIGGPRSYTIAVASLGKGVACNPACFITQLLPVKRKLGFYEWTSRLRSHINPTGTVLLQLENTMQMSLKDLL
# The depositor's hits bear a star; ? = inconclusive; . = not tested or not shown. An excerpt. The share of hits here may be higher or lower than overall.
Structure | Rango-impB inh | GLA inh pH 4.5 | miR-21 FLuc | Rango dissoc inh
O=C(NC1CC1)C1=C[C@@H](c2ccc(Br)cc2)C[C@@H](OCc2ccc(CO)cc2)O1 | -3.9% | 0 | 1% | 5%
Cc1nc(S/C(=C/c2ccc(-c3ccc(Cl)cc3)o2)C(=O)O)n[nH]1 | ? | -5 | -4% | -19%
Cc1ccccc1-n1c(SCC(=O)NCC2CCCO2)nnc1-c1ccncc1 (stereo unspecified) | -1.4% | . | . | 8%
CCOC(=O)C1=CN(Cc2ccco2)S(=O)(=O)NC1c1ccc(C(F)(F)F)cc1 (stereo unspecified) | -1.9% | . | . | -13%
COc1ccccc1NC(=O)NCC(=O)Nc1ccc(F)c(F)c1 | -0.1% | -4 | 0% | 9%
O=C1NC2=C(C(=O)OC2)C(c2ccc(OC(F)(F)F)cc2)N1 (stereo unspecified) | -4.7% | 8 | -9% | 1%
CCNC(=S)NNC(=O)Cn1c(=O)c2c(ncn2CCOC)n(Cc2ccccc2)c1=O | -0.7% | . | 0% | 18%
CC(C)CCOP(=O)(c1ccc(N(C)C)cc1)C(O)c1ccc(Cl)cc1Cl (stereo unspecified) | -1.2% | . | 28% | -9%
CCn1c(N)[n+](CC(=O)Nc2ccc(SC(F)F)cc2)c2ccccc21 | 6.5% | -1 | 22% | -6%
Cn1cnnc1SCC(=O)Nc1ncc(C(F)(F)F)cc1Cl | 0.0% | 3 | 2% | 5%
O=C(/C=N/O)NCCN1CCCCC1 | 4.4% | 3 | -9% | 0%
CC(=O)NC(=S)Nc1ccc(NC(=O)COc2ccc(Cl)cc2Cl)cc1 | 0.6% | -10 | -20% | -15%
Cc1nn(C)c(Cl)c1/C=C/C(=O)O | -0.3% | -2 | 0% | 17%
Cc1cc(N2C(=O)c3ccc(C(=O)Nc4ccccc4O)cc3C2=O)no1 | -0.4% | . | -1% | 7%
COc1ccc(C(=O)NC(=S)Nc2ccc(CN3CCOCC3)cc2)cc1 | 2.5% | 7 | 20% | -1%
CC(CNC(=O)c1cncc(O)c1)NC(=O)c1cncc(O)c1 (stereo unspecified) | -0.3% | 5 | -1% | 11%
CCOc1ccc(NC(=O)COc2ccccc2)c([N+](=O)[O-])c1 | 0.0% | -5 | -38% | 8%
O=C(C=Cc1ccco1)c1cc(Cl)ccc1O | ? | . | . | ?
N#CC1=C(SCC(N)=O)NC(=O)CC1c1ccccc1Cl (stereo unspecified) | 0.1% | -1 | -2% | 3%
O=C(O)c1cc(N/N=C/c2c(O)ccc3ccccc23)ccc1Cl | ? | . | -68% | -26%
CC(C)n1c(CN(C)Cc2ccccc2)nc2c1c(=O)n(C)c(=O)n2C | 2.6% | . | 19% | -19%
CCOc1[nH]n(-c2ccc(Cl)cc2)c(=O)c1C=Nc1ccc(O)cc1 | 3.3% | -30 | 23% | -8%
COc1ccc(S(=O)(=O)NCCC(=O)OCC(=O)NC2CC2)cc1 | 4.1% | . | . | -7%
COCc1cc(OC)nc(-c2csc(C)n2)n1 | 2.9% | -12 | 0% | 2%
COc1ccccc1NC(=O)c1ccc(N2CC3CC(C2)c2cccc(=O)n2C3)c(NC(=O)c2ccncc2)c1 (stereo unspecified) | 2.2% | . | -3% | 4%
O=C(COC(=O)c1sc2cc(F)ccc2c1Cl)Nc1ncc(Cl)cc1Cl | 2.4% | 5 | -5% | -14%
COc1ccc(CCNC(=O)c2ccn[nH]2)cc1OC | -4.1% | -7 | -3% | 8%
Cc1cccc(CNc2ncnc3ccc(-c4ccccc4Cl)cc23)c1 | -0.2% | . | . | 3%
CN1CCN(C(=O)Cn2c(=O)oc3cc(S(=O)(=O)NCc4ccccc4)ccc32)CC1 | 1.1% | -8 | -1% | -12%
O=C(Nc1cc(S(=O)(=O)N2CCCC2)ccc1OCC(F)(F)F)c1ccccc1F | -2.9% | -5 | -1% | -2%
CCN1CCN(c2ccc(NC(=O)Cc3ccccc3)cc2)CC1 | 0.4% | -5 | -28% | 19%
COc1ccc(NS(=O)(=O)c2ccc3c(c2)NC(=O)CCS3)cc1Cl | 1.0% | . | 10% | -4%
CCc1ccc2c(c1)cc(CN(C(=S)Nc1cccc(C)c1)C1CC1)c1nnnn12 | 3.2% | -1 | -2% | -12%
COc1ccc(CN2CC(=O)N(c3ccc(C)c(C)c3)C2=S)cc1OC | 0.3% | -4 | -6% | 1%
O=C(C1CC1)N1N=C2CCCCC2C1(O)C(F)(F)F (stereo unspecified) | 1.8% | 3 | 1% | 2%
COc1ccc(C(=O)C2CCCN(Cc3cccn3-c3ccccn3)C2)cc1F (stereo unspecified) | 1.6% | 1 | 22% | 7%
COc1ccc(NC(=O)CC2C(=O)N(Cc3cccs3)C(=S)N2C(C)C)cc1 (stereo unspecified) | 0.0% | -7 | 1% | 11%
COc1ccc(C(=O)NCCN2CCN(C(=O)c3ccc(OC)cc3)CC2)cc1 | -0.6% | . | -1% | -2%
CCCCCCn1cc(C(=O)O)c(=O)c2ccccc21 | -3.3% | 4 | -2% | 0%
OCCCCC#Cc1c(-c2ccsc2)sc2ccccc12 | ? | . | 1% | 6%
CCOC(=O)N1CCN(C(=O)CNC(=O)c2ccc(Br)o2)CC1 | -0.2% | . | -5% | -1%
CC(OC(=O)COc1ccccc1)C(=O)NC1CCCC1 (stereo unspecified) | 1.6% | . | . | 0%
COc1ccc(-n2c(SCC(=O)N3CCOCC3)nc(O)cc2=O)cc1 | -3.1% | . | 0% | -5%
COc1ccc(-c2nnc(SCC(=O)Nc3nc4ccccc4s3)n2C)cc1 | -1.5% | 1 | -1% | -4%
COc1ccc(NC(=O)Nc2cccc(NC(C)=O)c2)c(OC)c1 | 2.5% | 7 | -3% | 1%

# Among those listed so far, these have bromine.
Structure | Rango-impB inh | GLA inh pH 4.5 | miR-21 FLuc | Rango dissoc inh
O=C(NC1CC1)C1=C[C@@H](c2ccc(Br)cc2)C[C@@H](OCc2ccc(CO)cc2)O1 | -3.9% | 0 | 1% | 5%
CCOC(=O)N1CCN(C(=O)CNC(=O)c2ccc(Br)o2)CC1 | -0.2% | . | -5% | -1%

# Other compounds follow.
Structure | Rango-impB inh | GLA inh pH 4.5 | miR-21 FLuc | Rango dissoc inh
Cc1nc(SCC(=O)Nc2c(C)nn(C)c2C)c2cnn(-c3ccccc3)c2n1 | -0.1% | -19 | -5% | -9%
CC(NS(=O)(=O)c1ccc(F)cc1)C(=O)Nc1ccc2c(c1)OCCO2 (stereo unspecified) | 0.2% | . | -7% | 2%
Cn1c(N)c(C(=O)COC(=O)Cc2cccs2)c(=O)n(C)c1=O | -2.6% | . | . | -11%
CCC(C)OC(=O)C1=C(C)OC23OC(N)=C(C#N)C12C(=O)c1ccccc13 (stereo unspecified) | 1.1% | -1 | -18% | -7%
O=C(CCC(=O)N1CCOc2ccccc21)NCCc1ccccc1 | 10% | . | -11% | -1%
COc1c(S(=O)(=O)NCCCN2CCOCC2)ccc(Cl)c1Cl | -4.8% | -1 | -13% | 1%
CCOC(=O)c1sc(N/N=C/c2cc(Br)c(O)c(OC)c2)nc1C | ? | . | 11% | ?
O=C(O)CCCNC(=O)c1nn(Cc2ccccc2)c(=O)c2ccccc12 | -3.0% | . | 9% | 11%
Nn1cnc2scc(-c3ccc(Cl)cc3)c2c1=O | 7.2% | . | -5% | -11%
Cc1c(N=Cc2cccs2)c(=O)n(-c2ccccc2)n1C | 7.0% | -11 | 1% | -4%
CC(=O)Nc1cccc(NC(=O)CSc2nc(C3CC3)nc3ccccc23)c1 | -0.1% | . | 17% | -8%
COc1cccc(C(=O)Nc2cc(=O)n(C)c(=O)n2C)c1OC | -12% | -10 | -3% | -13%
CCOC(=O)c1ccccc1NC(=O)c1ccc(Cl)c(S(=O)(=O)N2CCOCC2)c1 | 4.3% | . | . | 5%
N=C(N)Cc1ccccc1Sc1ccccc1 | 2.4% | 3 | 2% | 10%
CCC(C)NC(=O)CN1C(=O)NC2NC(=O)NC21 (stereo unspecified) | 1.4% | 8 | -2% | 12%
O=C(Cc1cccc(C(F)(F)F)c1)Nc1ccccc1 | -1.3% | 4 | 4% | -12%
CC1(C)CC(=O)C(C=NCC(O)c2ccccc2)=C(O)C1 (stereo unspecified) | 1.4% | -3 | -5% | -10%
CCOC(=O)C(=O)N1CCN(c2cc3c(cc2[N+](=O)[O-])n(C)c(=O)n3C)CC1 | -4.1% | 2 | -2% | 16%
c1ccc(OCCOCCN2CCOCC2)cc1 | -3.7% | 6 | -1% | 22%
O=C(CSc1nnnn1-c1cccc2ccccc12)Nc1ccc(C(=O)O)cc1 | -6.3% | . | 1% | 3%
CCCC(O)(c1ccccc1)C(CN1CCOCC1)c1ccccc1 (stereo unspecified) | 3.6% | . | 3% | 3%
COc1cc(-c2nnc(CSc3nnc(Nc4ccc(Oc5ccccc5)cc4)s3)o2)cc(OC)c1OC | -2.4% | -10 | 0% | 3%
C/C=C/C(=O)OCC(=O)Nc1ccc(OC)c(OC)c1 | -0.3% | 2 | 8% | 20%
CCc1ccc(NC(=O)CSc2nnnn2C)cc1 | 1.3% | . | -44% | ?
CS(=O)(=O)c1ccc2nc(NC(=O)c3ccc(Cn4cc(Br)cn4)o3)sc2c1 | ? | . | -7% | -11%
CN(/N=C/c1cccs1)c1cc(=O)n(C)c(=O)[nH]1 | -2.1% | -12 | 1% | -3%
O=[N+]([O-])c1cccnc1Sc1n[nH]c(-c2ccc(Cl)cc2)n1 | 3.6% | -9 | -44% | -11%
O=C(NCc1ccccn1)/C(=C/c1ccco1)NC(=O)c1ccccc1 | ? | 4 | -2% | -11%
O=C(COC(=O)/C=C/c1ccc(Cl)cc1Cl)Nc1cc(C(F)(F)F)ccc1N1CCOCC1 | -0.7% | 4 | -1% | -18%
CCOc1ccc(-n2c(=S)sc3c(=O)[nH]c(SCC(=O)NCc4ccco4)nc32)cc1 | -3.0% | 0 | -2% | -7%
COc1ccc(-n2c(CN3CCN(C)CC3)nc3ccc([N+](=O)[O-])cc3c2=O)c(OC)c1 | -0.1% | . | -1% | 0%
O=C1CN(C(=O)/C=C/c2cc(Br)ccc2F)CCN1 | -2.1% | . | -4% | 12%
COc1ccc(Cl)cc1NS(=O)(=O)c1cccc(C(=O)NCC2(N(C)C)CCCCC2)c1 | 2.9% | . | -8% | 0%
CCN(CC)c1ccc(NC(=O)CN(C)Cc2cccs2)cc1 | 2.1% | . | 1% | -11%
COc1ccc(CN2C(=O)/C(=C/c3ccc(-c4ccc(Cl)c(C(=O)O)c4)o3)SC2=S)cc1 | . | -14 | -2% | .
c1ccc(Cn2ncc3c(N4CCOCC4)ncnc32)cc1 | -0.1% | -4 | -15% | 2%
Oc1ccc(/C=N/N2CCN(Cc3ccccc3)CC2)cc1 | -4.3% | . | -7% | 5%
Cc1ccc(S(=O)(=O)Nc2ccc(NC(=O)c3cccnc3)cc2)cc1 | 2.3% | 3 | -1% | 0%
COc1ccc(COC(=O)CCc2cc(OC)c(OC)c(OC)c2)cc1F | -4.1% | . | . | 11%
COc1ccccc1NC(=S)NC(NC(C)=O)C(Cl)(Cl)Cl (stereo unspecified) | -0.3% | -14 | -5% | 2%
COc1ccc(NC(=O)CN(C)C(=O)CNC(=O)c2cccs2)cc1 | 0.3% | . | -4% | 7%
Cc1ccc(S(=O)(=O)NC(CC(C)C)C(=O)N2CC(C)OC(C)C2)cc1 (stereo unspecified) | -1.3% | . | -1% | 3%
O=C(OCC(=O)N1CCC(Cc2ccccc2)CC1)c1ccccc1NCCO | ? | . | . | 12%
CN(C(=O)COC(=O)/C=C/c1ccc(C(F)(F)F)cc1)C1CCS(=O)(=O)C1 (stereo unspecified) | -1.5% | . | -1% | -9%
O=C(c1ccco1)N1CCN(S(=O)(=O)c2ccccc2)CC1 | -9.0% | . | -2% | -5%
O=C(Nc1ccc(Cl)cc1)NC1CCS(=O)(=O)C1 (stereo unspecified) | -1.7% | 2 | -2% | 26%

# Screening data deposited in PubChem BioAssay by National Center for Advancing Translational Sciences (NCATS).
